# Screening data: PubChem, ICCB-Longwood Screening Facility, Harvard Medical School
# MgrA DNA FP = S. aureus MgrA activity modulators, primary screen, biochemical, S. aureus Newman, fluorescence polarization; MgrA-DNA binding; 84,000 compounds, 0.13% hits; inhibition, %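 (about 10 µg/mL by stock and volumes)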;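 active = above 50% in either of two replicates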;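 also: 0% = protein plus DNA without compound and 100% = DNA alone without protein; higher means less MgrA bound to DNA so lower polarization; one replicate is shown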
# S aureus helic = inhibitors of S. aureus replicative helicase, primary screen, biochemical, fluorescence unwinding readout; 120,000 compounds, 0.05% hits; replicative DNA helicase (DnaC/DnaB), Staphylococcus aureus; purified S. aureus helicase, fluorescence unwinding assay; about half of the hits fall short of the stated cut; inhibition, %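 (tested at about 80 µM)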;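 active = both duplicates at 50% or more, or one of them with a favoured structure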;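 also: 0% = mean of negative control wells and 100% = mean of positive control wells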
# Numbers without * were called inactive; . = no result given. These rows are one share of the data. The share of hits here may be higher or lower than overall.
SMILES,MgrA DNA FP,S aureus helic
COc1ccc(/C=C(\C#N)c2nc3ccccc3[nH]2)cc1OC,-2.4,.
CC1=CN2C(=NC(C(F)(F)F)(C(F)(F)F)N=C2c2ccco2)C=C1,.,14.0
COc1cccc(-c2nnc3sc(NC(C)=O)nn23)c1,3.0,-1.0
CCOC(=O)C1CCCN(C(=O)c2cc3ccccc3oc2=O)C1 (stereo unspecified),0.1,9.0
O=C(NC1CCCCC1)Oc1ccccc1-c1nnc2n1CCCCC2,1.8,-13.0
Cc1ccc(C(C)C)c(OCCNC(=O)Nc2ccc(Br)cc2)c1,-0.3,5.0
Cc1cc(=O)[nH]c(NN=C2CCC(C(C)(C)C)CC2)n1 (stereo unspecified),.,6.0
Cc1nnc2sc(-c3ccc(F)cc3)nn12,.,-28.0
CCOC(=O)C1=C(N)c2ccccc2CC1(C)CC (stereo unspecified),0.4,9.0
O=C(Cc1ccccc1)N/N=C1/CCS(=O)(=O)c2ccc(F)cc21,.,-7.0
CN1CCCN(C(=O)c2cccs2)CC1,-0.5,-5.0
Cc1nn(-c2ccc(F)cc2)c(C)c1/C=C/C(=O)NC(C)(C)C,.,-8.0
Cc1ccc(S(=O)(=O)C[C@H]2O[C@@H](n3cc(I)c(=O)[nH]c3=O)C[C@@H]2O)cc1,1.2,.
COC(=O)c1ccc2c(=O)[nH]c(COC(=O)c3ccccc3SCC(=O)N3CCCC3)nc2c1,.,-1.0
O=C(Oc1ccccc1OC(=O)N1CCCCC1)N1CCCCC1,1.2,18.0
O=C1C2(Cc3ccccc3)CN3CN(C2)CC1(Cc1ccccc1)C3,-1.9,5.0
N#Cc1ccc2c(c1)N(Cc1c(F)cccc1Cl)C(=O)C1CCCN21 (stereo unspecified),-0.4,.
CCOC(=O)N1CCC(NC(=O)c2ccc3c(c2)sc2nc(-c4ccc(OC)cc4)cn23)CC1,0.2,2.0
Cc1cc2[nH]c(=O)cc(C)n2n1,.,-20.0
COc1ccc(-c2csc(C)n2)cc1,0.1,1.0
Cc1nc2nc(N)nn2c(C)c1CCC(=O)OCc1cccc(Cl)c1,.,4.0
O=C(CCN1C(=O)c2ccccc2S1(=O)=O)N1CCN(c2ccccc2)CC1,.,2.0
O=C(C1=Cc2sc3c(c2CS1)CCCC3)N1CCCC1,.,-9.0
O=C(c1ncoc1-c1ccccc1)N(Cc1ccccn1)Cc1ccccn1,4.0,.
O=C(Nc1ccsc1C(=O)O)c1ccccc1,0.0,.
CCc1ccc(/C=C2\CCc3ccccc3C2=O)cc1,-2.7,15.0
CCCn1c2c(c(O)c(C(=O)Nc3ccccc3F)c1=O)CCCC2,-4.8,4.0
CC1=C/C(=N\NC(=O)c2cc(C)oc2C)CC1,.,-5.0
CCOCCC(=O)Nc1cc(C)ccn1,-2.5,2.0
CCc1ccc2c(c1)CCCN2C(=O)c1ccccc1C(=O)O,-3.2,0.0
CCOC(=O)c1cc(-c2ccc(Cl)cc2)oc1C,-4.5,.
NC(=O)/C=C/c1ccco1,.,10.0
CC1CCCCN1S(=O)(=O)c1ccc(NC(=O)Cn2cnc3ccccc3c2=O)cc1 (stereo unspecified),-2.5,1.0
COc1cc(OC)c(NC(=O)CCc2ccccc2)cc1Cl,1.2,7.0
O=c1[nH]cnc2c1cnn2-c1ccc2ccccc2c1,.,4.0
O=c1cc(-c2ccccc2)nc(SCCOc2ccccc2F)[nH]1,-1.9,0.0
CC1(C)CN(c2ccc(Cl)cn2)C1=O,2.8,.
COc1ccc(NC(=O)c2cccnc2SC)cc1,-1.4,-4.0
N=C(N)SCc1c(Cl)cccc1Cl,-1.1,.
COc1ccc(N2C(=O)C(C)C(Cc3ccc(C)cc3)C2=O)cc1 (stereo unspecified),3.2,9.0
CC(=O)OC(OC(C)=O)C12C=CC(O1)C1C(=O)N(c3ccc(Br)cc3[N+](=O)[O-])C(=O)C12 (stereo unspecified),-0.8,.
CCC(Sc1nc2sc(C(=O)OC)c(C)c2c(=O)n1N)C(=O)Nc1cccc(OC)c1 (stereo unspecified),-1.4,11.0
COc1cccc(-c2nn(Cc3ccccc3)cc2CNCCCn2ccnc2)c1,.,12.0
Fc1ccc(-c2cc3ccccc3[nH]2)cc1,-1.8,.
CNC(=O)CC1Nc2ccccc2NC1=O (stereo unspecified),-1.2,-1.0
Cn1nc(C(C)(C)C)cc1C(=O)NCc1ccc(-c2cccs2)cc1,-0.8,.
Cc1ccc(CNc2cc(-c3nn4c(C)nnc4s3)ccc2C)s1,.,5.0
c1ccc(-c2ccc(-c3ccccc3)o2)cc1,4.7,.
O=C(COn1nnc2ccccc21)Nc1ccccc1C(=O)Nc1ccc2c(c1)OCO2,.,36.0
Nc1cc(CCCC(=O)O)sc1CCCC(=O)O,.,-9.0
CCCCCCOc1ccc(/C=C(\C#N)C(=O)NCc2ccco2)cc1,.,10.0
CCn1c(SCC(=O)Nc2nc(C)c(C)s2)nnc1C(C)NC(=O)c1ccccc1F (stereo unspecified),-4.6,-3.0
CC(NC(=O)c1ccccc1)C(c1cccs1)N1CCOCC1 (stereo unspecified),.,8.0
CN1CCCN(C(=O)c2ccncc2)CC1,4.2,7.0
CC1(C)Cc2ccccc2-c2nc(NN)[nH]c(=O)c21,-1.5,5.0
CC(C)(C)C(=O)NC(=S)Nc1cccc(C(F)(F)F)c1,-2.0,.
Cc1cc(C)cc(OCC(=O)OCC(=O)c2ccc3c(c2)OCO3)c1,.,3.0
CCOc1ccc(/C=C2\CC/C(=C\c3ccc(OCC)cc3)C2=O)cc1,-0.2,11.0
CN(C)CCNC(=O)c1ccc(N2CCCCS2(=O)=O)cc1,.,9.0
CC1CN(S(=O)(=O)c2cccc(C(F)(F)F)c2)CC(C)O1 (stereo unspecified),-0.4,.

# An excerpt from above in order of their number in S aureus helic, falling:
Compound,S aureus helic
NC(=O)/C=C/c1ccco1,10.0
CCOC(=O)C1=C(N)c2ccccc2CC1(C)CC (stereo unspecified),9.0
Cc1ccc(C(C)C)c(OCCNC(=O)Nc2ccc(Br)cc2)c1,5.0
COc1ccc(-c2csc(C)n2)cc1,1.0

# Further entries.
SMILES,MgrA DNA FP,S aureus helic
COc1ccc(/C=C2\Oc3ccccc3N(CC(=O)N3CCN(c4ncccn4)CC3)C2=O)cc1Br,.,5.0
NC(=O)C1CCN(C(=O)CSc2nc3ccccc3s2)CC1,1.4,14.0
CC(C)(C)c1ccc(-c2[nH]nc(NC(=O)c3ccccc3Cl)c2Br)cc1,-0.9,.
O=S(=O)(NC1CC2CCC1C2)c1ccc(Cl)cc1 (stereo unspecified),.,-15.0
CC(C)n1nccc1N(Cc1ccc(Cl)cc1)S(=O)(=O)c1ccccc1,.,10.0
COc1ccc(/C=C2\SC(=O)N(CCNC(=O)c3cc(S(=O)(=O)N(C)C)ccc3N3CCCC3)C2=O)cc1,.,-6.0
COc1ccc(-c2c(-c3ccc(OC)c(OC)c3)c(C)n(C)c2C)cc1OC,0.4,.
Cc1nnc(SC(C)C(=O)Nc2ccc(N3CCOCC3)cc2)n(N)c1=O (stereo unspecified),.,15.0
O=C(CCc1ccc(-n2cnc3cccnc32)cc1)NCCc1cccs1,.,-7.0
Cc1cn2c(=O)c3c4c(sc3nc2s1)CCCC4,.,11.0
COc1ccc(CNC(=O)c2[nH]c(C)c(C(=O)NC3CCCCC3)c2C)cc1,.,-7.0
Nc1ccccc1C(=O)NCCCN1CCCCC1,-0.7,.
CC12CCC3(C)OCC(COC(=O)Nc4ccccc4)(CO1)N23 (stereo unspecified),4.6,6.0
Cn1c(C(=O)N2CCCC(C(=O)NCCc3ccc(S(N)(=O)=O)cc3)C2)cc2sccc21 (stereo unspecified),.,-2.0
CCc1cccc(C)c1NC(=O)COC(=O)C1CC(=O)N(c2ccc(OC(C)C)cc2)C1 (stereo unspecified),-1.3,-6.0
Cc1c(C#N)sc(C(N)=O)c1C,3.5,.
O=C(NCc1c(Cl)cccc1Oc1ccccc1)c1ccc2nccnc2c1,-0.2,.
O=c1[nH]c(=O)n(-c2ccccc2)c2c1C(C(F)(F)F)(C(F)(F)F)N=C(c1ccncc1)N2,-1.5,-5.0
COc1ccc(OC)c(/C=N/c2sc3c(c2C#N)CCC3)c1,.,7.0
CCn1c(SCC(=O)N(C)C2CCCCC2)nc2ccc(Br)cc2c1=O,.,-3.0
C(=Nc1ccc2c(c1)OCCOCCOCCO2)c1c[nH]c2ccccc12,0.6,10.0
COc1ccccc1OCCNC(=O)c1coc2ccccc2c1=O,.,-16.0
CC1=C(C(=O)Nc2ccccc2)C2(CCCCC2)C(C#N)=C(SCC(=O)Nc2nccs2)N1,-1.3,14.0
CCOC(=O)c1c(-c2cccs2)csc1NC(C)=O,-3.0,5.0

# A draw from above in order of number of heavy atoms, lowest first.
SMILES,MgrA DNA FP,S aureus helic
COc1ccc(OC)c(/C=N/c2sc3c(c2C#N)CCC3)c1,.,7.0
C(=Nc1ccc2c(c1)OCCOCCOCCO2)c1c[nH]c2ccccc12,0.6,10.0
CC1=C(C(=O)Nc2ccccc2)C2(CCCCC2)C(C#N)=C(SCC(=O)Nc2nccs2)N1,-1.3,14.0

# Carrying on.
SMILES,MgrA DNA FP,S aureus helic
CCN1C(=S)SC(=O)C1=C1C=C(C)N(CCO)C(C)=C1,.,-11.0
CCOC(=O)c1csc(NC(=O)Nc2cccc(OC)c2)n1,.,6.0
CN(C)/C=C1\S/C(=N\S(=O)(=O)c2ccc(Cl)cc2)N(C2CCCCC2)C1=O,.,1.0
CC(NC(=O)c1ccc(C#N)cc1)C(c1cccs1)N1CCCC1 (stereo unspecified),1.1,5.0
CCC(Cc1ccccc1)NC(=O)Cn1c(=O)oc2cc(S(=O)(=O)NCc3ccccc3)ccc21 (stereo unspecified),1.1,6.0
CC(C)CC(=O)Nc1ccc(C(=O)CN2CCN(c3ccc(O)cc3)CC2)cc1,.,-6.0
O=C(COC(=O)c1ccc2c(=O)n3c(nc2c1)CCCCC3)NCC1CCCCC1,.,-4.0
CN(C)S(=O)(=O)c1ccc(=O)n(C(C(=O)NC2CC2)c2ccccc2)c1 (stereo unspecified),.,-4.0
CC1CN(/C(=N\S(=O)(=O)c2ccccc2)c2ccccc2)CC(C)O1 (stereo unspecified),.,-13.0
O=C1c2ccccc2S(=O)(=O)N1CCSc1ncc(C(F)(F)F)cc1Cl,.,11.0
CSc1ccc(CCNC(=O)c2ccc3snnc3c2)cc1,0.4,4.0
CCOc1ccc(-n2nnnc2SCC(=O)c2c(C)cc(C)cc2C)cc1,.,12.0
COc1ccccc1NC1=NC(c2ccc(Cl)cc2)N=C(N)N1 (stereo unspecified),.,-4.0
CC(C)(C)C(=O)CSc1ncccn1,-2.5,-7.0
O=C(NCc1cccnc1)c1ccccc1C(=O)Nc1sc2ccccc2c1Cl,-1.4,.
CC(C)NC(=O)c1c2c(nn1C)-c1ccccc1SC2,.,-22.0
N#Cc1ccc(COc2cccc[n+]2[O-])cc1,.,-8.0
CC(OC(=O)CC1CC2CCC1C2)C(=O)Nc1ccc(N2CCOCC2)cc1 (stereo unspecified),.,11.0
Cc1ccc(N=Cc2c(O)cc(C)oc2=O)cc1,.,-4.0
Cn1cnc2cc(NC(=O)COc3ccccc3)ccc21,0.7,-4.0
COc1ccc2c(c1)CCC/C2=N\NC(N)=S,.,4.0
CCc1c(C)c(C#N)c2nc3ccccc3n2c1Nc1ccncc1,-2.6,20.0
O=C(c1ccccc1)N1CCN(C(=O)C2(c3ccccc3)CC2)CC1,.,2.0
CCn1c(SCC(=O)Nc2ccccc2OC)nc2c([nH]c3ccccc32)c1=O,.,-7.0

# Among those listed so far, 5 have a CF3 group.
SMILES,MgrA DNA FP,S aureus helic
CC1=CN2C(=NC(C(F)(F)F)(C(F)(F)F)N=C2c2ccco2)C=C1,.,14.0
CC(C)(C)C(=O)NC(=S)Nc1cccc(C(F)(F)F)c1,-2.0,.
CC1CN(S(=O)(=O)c2cccc(C(F)(F)F)c2)CC(C)O1 (stereo unspecified),-0.4,.
O=c1[nH]c(=O)n(-c2ccccc2)c2c1C(C(F)(F)F)(C(F)(F)F)N=C(c1ccncc1)N2,-1.5,-5.0
O=C1c2ccccc2S(=O)(=O)N1CCSc1ncc(C(F)(F)F)cc1Cl,.,11.0

# Further structures follow.
SMILES,MgrA DNA FP,S aureus helic
Oc1c(Cl)cc(Cl)cc1/C=N/c1nccs1,20.9,.
CC(=O)Nc1ccc(NC(=O)Nc2cccs2)cc1,.,-3.0
CCN(CC(=O)Nc1ccc(SC(F)F)cc1)CC1COc2ccccc2O1 (stereo unspecified),.,-18.0
COc1cc2c(C(=O)N3CCN(C)CC3)c(C)oc2cc1Br,.,9.0
Cc1nn(-c2ccccc2)c2c1C(O)n1c(nc3ccccc31)S2 (stereo unspecified),.,-9.0
Cn1c(SCc2cc(=O)n3cc(Br)ccc3n2)nnc1-c1ccco1,.,-2.0
Oc1c(C=Nc2ccc(Br)cc2)sc2ccccc12,-0.4,13.0
Cc1cc(NC(=O)c2ccc3c(c2)NC(=O)c2ccccc2S3)no1,.,-6.0
COCc1cc(C)n(CC(=O)N2CCC(C)CC2)c(=O)c1C#N,-3.4,3.0
O=C(Nc1ccc(I)cc1)c1sc2cc(Cl)ccc2c1Cl,-1.3,.
Cc1cc(C(=O)CSc2ccc3c(c2)OCCO3)c(C)n1C,.,-13.0
CCc1c(C(=O)NCCN(C)C)csc1C,1.9,9.0
CC(C)CCn1cccc1C1=NC(C)(C)CO1,.,8.0
Oc1ccc(C(=S)N2CCN(c3cccc(Cl)c3)CC2)cc1,2.6,19.0
CCn1c(C(=O)O)c(S(=O)(=O)c2ccc(Cl)cc2)c2ccccc21,.,17.0
CC1=CC(=O)C(N(CCO)CCO)=CC1=O,.,15.0
CCc1ccc2c(c1)C1(NN=C(c3ccccc3)S1)C(=O)N2 (stereo unspecified),14.8,4.0
O/N=C/c1ccc(-c2ccccc2OC(F)(F)F)o1,-1.4,.
C=CCc1ccccc1OCC(O)Cn1c(C)nc2ccccc21 (stereo unspecified),.,-17.0
COc1ccc(Sc2cccs2)cc1,0.6,1.0
CCS(=O)(=O)N1CCN(S(=O)(=O)c2ccc(C)cc2)CC1,-1.6,3.0
